Source: PubChem
PrP 5UTR inh: suppresses PrP 5' UTR mRNA reporter expression. cell-based PrP 5' UTR mRNA reporter, plate reader. inhibition, % (test concentration not listed). 340,000 tested, 0.35% active. AID 488862;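 active means every replicate at 50% or more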;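 further: 0 = median of the neutral control wells; tested in H4 reporter cells; numbers are from one replicate; inactives centre near -14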
BJeLR lethal: BJeLR cell viability loss; BJeLR (HRASV12) viability, CellTiter-Glo ATP luminescence, 48 h; reference of the scale not given here; inhibition, % (test concentration not listed); 300,000 tested, 0.17% active;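 active means replicate mean above 50%; inconclusive means above 50% but judged a plate artefact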;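 further: 50 nL library stock added to about 25 µL; numbers are from one replicate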
Autofluor counter: compound fluorescence in toxin protease inhibitor counterscreen. compound autofluorescence counterscreen, microsphere flow cytometry; active compounds read high. fluorescence intensity (no concentration beside the values). 360,000 tested, 3.1% active. AID 624483;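 active means at least 3 SD above the mean of all compounds, about 16000 in these data; inconclusive means too few beads counted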;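 further: 100 nL of 1 mM stock went into each well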
Mtb hypoxia rep: inhibitors of hypoxia-regulated fluorescent reporter in Mycobacterium tuberculosis | M. tuberculosis hypoxia-regulated fluorescent reporter, fluorescence | fluorescence inhibition, % (test concentration not listed) | 300,000 tested, 0.1% active | AID 1159583;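 active means 35 to 45% if threefold the growth effect, above 45% if 1.5-fold the growth effect; inactive means the rest, general growth blockers included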;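 further: wells of about 50 µL received 100 nL stock; 0% = vehicle wells and 100% = reference inhibitor wells; whole bacteria with a GFP reporter of the hypoxia response; strong numbers were not always called active; many hits fall short of the cut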
Sa RN4220 lethal: kills Staphylococcus aureus RN4220. 330,000 tested, 0.33% active. S. aureus RN4220 growth, OD600, 16 h. inhibition, % (concentration not given with the values). AID 1259311;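 active means z-score of -3 or lower and OD600 up to 0.18 on both plates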;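 further: plate controls were untreated cells for no effect and reference antibiotic for full effect; stock transfer was 100 nL into about 80 µL; one replicate is shown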
ugtP null kill: compounds lethal to S. aureus RN4220 ugtP deletion mutant; OD600 growth, 16 h; some inactives read as strong as hits; growth inhibition, % (concentration not given with the values); 330,000 tested, 0.54% active;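 active means z-score under -3 and OD600 up to 0.15 on both plates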;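 further: plate controls were untreated wells for no effect and antibiotic for full effect; wells of about 80 µL received 100 nL stock; the first replicate is given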
Mtb hypoxia rep growth: also measured in Mtb hypoxia rep; calls as there; growth inhibition, %; measured here: M. tuberculosis growth (absorbance);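 0% = vehicle and 100% = reference antibiotic; read after six days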
Numbers without * were called inactive; ? = inconclusive; . = not tested or not shown; & = joins results of further samples.

SMILES	PrP 5UTR inh	BJeLR lethal	Autofluor counter	Mtb hypoxia rep	Mtb hypoxia rep growth	Sa RN4220 lethal	ugtP null kill
COc1ccc(-c2nnc(SCc3ccccn3)n2C)cc1	-26	1	4395	5	5	-2.7	-4
CCc1nnc(NC(=O)Cc2sc(C)nc2-c2ccc(C)cc2)s1	0	17	3243	-8	2	1.2	2
NC(=O)c1ccc[n+](CC(=O)NCc2ccc(Cl)cc2)c1	-69	2	3499	14	7	-1.0	18
COc1ccc(NS(=O)(=O)c2ccc(N3CCOCC3)c(NC(=O)c3ccccc3Br)c2)cc1	-29	-5	4351	11	4	0.9	14
COC(=O)[C@]1(CC(C)C)NC(c2ccc(-c3ccc(F)cc3)c(OC)c2)C2C(=O)N(C)C(=O)C21 (stereo partly drawn)	.	.	.	17	9	-2.3	1
Cc1ccc(-c2nn(CC(=O)NCc3ccco3)c(=O)c3ccccc23)cc1	-13	-6	3167	12	10	1.9	-2
COc1cc(OC)cc(C2=NCCN2)c1	-25	-5	2199	6	-8	4.3	8
COc1cc(/C=C/C(=O)NCCn2c(C)cc3ccccc32)cc(OC)c1OC	-2	2	6130	2	7	-10	-6
O=C(Nc1ccccc1)c1nc2ccccc2s1	-92	8	2513	-8	5	12	-1
O=C(Nc1cc(Cl)ccc1-n1cncn1)c1cc(S(=O)(=O)N2CCOCC2)ccc1F	-1	0	6380	-5	4	-0.7	-4
CCCCN(C)C(=O)c1nc2ccccn2c1CN1CCSCC1	-2	-2	4574	9	11	1.7	1
O=C(NCCc1nc2ccccc2[nH]1)c1cccc(Br)c1	-13	-4	2259	-10	-2	-5.9	-12
Cc1ccc(S(=O)(=O)N(C)C)cc1NC(=O)c1cc(-c2ccco2)nc2ccccc12	1	3	5925	5	14	3.3	-10
Cc1ccc(-c2nc3ncccc3o2)cc1NC(=O)c1cccnc1	-14	-8	4346	4	-8	8.4	7
Cc1cc2[nH]c(=O)c(=O)[nH]c2cc1S(=O)(=O)N1CCC(C)CC1	-3	-14	5923	.	.	-0.3	-7
CCN1CCN(C(=O)C2c3cc(OC)c(OC)cc3C(=O)N(C)C2c2ccc(SC)cc2)CC1 (stereo not drawn)	-36	6	22280*	3	9	2.7	0
Cc1ccccc1NC(=O)C1CCN(C2=NS(=O)(=O)c3ccccc32)CC1	2	2	3148	2	-4	4.5	5
N#CCCN(C(=O)CSc1ccc2c(c1)OCCO2)c1ccccc1	-5	7	9046	5	2	2.4	4
CCOC(=O)N1CCN(C(=O)c2oc(=O)c3ccccc3c2-c2ccc(C)cc2)CC1	-7	-4	4975	.	.	1.7	8
CCOC(=O)c1nnc(-c2cccs2)nc1Oc1ccc(Cl)cc1	-4	-2	4464	.	.	1.3	3
CC(C)C(NC(=O)c1ccc(F)cc1)C(=O)Nc1cccnc1 (stereo not drawn)	-21	6	4214	11	5	-1.4	2
O=C(CSc1ccc(Cl)cc1)OCc1nnc(-c2ccccc2)o1	-36	-11	4107	6	3	0.0	6
COc1cccc(C=NNC(=O)c2ccc(Cn3cc(Br)c([N+](=O)[O-])n3)o2)c1O	.	.	.	4	1	5.0	1
O=C(NC(Cc1ccccc1)C(=O)O)/C(=C/c1cccc([N+](=O)[O-])c1)NC(=O)c1ccco1 (stereo not drawn)	-13	-8	3937	0	-3	2.3	7
CC(C)C(NC(=O)/C(=C\c1ccco1)NC(=O)c1ccco1)C(=O)O (stereo not drawn)	-11	-2	3820	5	-1	0.6	1

The last two records of the section above are carried over, then new ones follow:
SMILES	PrP 5UTR inh	BJeLR lethal	Autofluor counter	Mtb hypoxia rep	Mtb hypoxia rep growth	Sa RN4220 lethal	ugtP null kill
O=C(NC(Cc1ccccc1)C(=O)O)/C(=C/c1cccc([N+](=O)[O-])c1)NC(=O)c1ccco1 (stereo not drawn)	-13	-8	3937	0	-3	2.3	7
CC(C)C(NC(=O)/C(=C\c1ccco1)NC(=O)c1ccco1)C(=O)O (stereo not drawn)	-11	-2	3820	5	-1	0.6	1
COc1cc(/C=N/Nc2ccc(Cl)c(C(=O)O)c2)ccc1OC(=O)c1ccccc1F	-19	-8	4900	.	.	.	.
NC1=NN=C(N2N=C(c3ccccc3)CC2(O)C(F)(F)F)n2ncnc2C1 (stereo not drawn)	-15	-5	2677	6	2	2.4	-1
CC(=NNC(=O)c1cc(-c2ccc(C)s2)[nH]n1)c1ccco1	.	.	.	-1	5	1.4	-16
O=C(Nc1ccc(S(=O)(=O)NCc2ccco2)cc1)c1ccncc1	-9	-3	2685	.	.	-2.4	7
CCN1CCN(c2c(Cl)cccc2NC(=O)c2ccc3c(c2)OCCO3)CC1	-13	-1	8934	11	8	4.0	-11
O=[N+]([O-])c1ccc(C2CCCC/C2=N/OCc2ccc(F)cc2)c([N+](=O)[O-])c1 (stereo not drawn)	-15	-8	9272	.	.	.	.
O=C(NC1CC(=O)N(c2ccc(F)cc2)C1)C(=O)c1c[nH]c2ccccc12 (stereo not drawn)	-14	1	5238	7	5	1.1	0
CC1CCN(c2cc(N)c(Cl)cc2[N+](=O)[O-])CC1	-29	3	4706	.	.	1.9	-2
COCCN(C(=O)CCC(=O)Nc1ccccn1)C(C(=O)NCCC(C)C)c1ccc(C)cc1 (stereo not drawn)	-7	7	3217	12	-2	2.4	1
Cc1cc(-c2cccs2)n[nH]1	-28	-5	6035	.	.	-0.3	-1
COc1ccc(/C(C)=N\NS(C)(=O)=O)c(OC)c1	-7	-2	2451	.	.	.	.
COCCCNC(=S)N/N=C/c1ccccc1O	-34	-12	4308	.	.	.	.
COc1cc(NC(=O)Cn2ncc(Cl)c(Cl)c2=O)c(C)cc1[N+](=O)[O-]	-38	9	4225	7	13	3.1	6
CCCC(=O)Nc1nnc(-c2ccco2)s1	-34	.	3680	.	.	3.1	6
O=C(Cc1ccc([N+](=O)[O-])cc1)NCC1CCCO1 (stereo not drawn)	-2	-7	4351	-2	4	11	5
O=C(OCC(=O)N1CCN(S(=O)(=O)c2ccc(Cl)cc2)CC1)c1ccc([N+](=O)[O-])o1	-33	0	4136	6	8	5.7	13
CCC1Sc2ccccc2N(CC(=O)NCc2ccc3c(c2)OCO3)C1=O (stereo not drawn)	-17	-1	8933	-4	10	-5.0	-6
Cc1ccc[n+](CC(=O)N2CCCCC2)c1C	-19	-2	4477	-20	8	-0.9	-6
CCN(CC(=O)NC1CCS(=O)(=O)C1)C(=O)c1ccc(S(=O)(=O)N(CC)CC)cc1 (stereo not drawn)	-2	.	6151	8	9	-0.3	-2
Cc1cc(Sc2nc(NC(C)C)nc(NC(C)C)n2)nc(Cl)n1	4	-1	3667	-4	7	-1.5	-4
Cc1ccc2c(C)c(C(=O)N3CCN(c4ncccn4)CC3)oc2c1C	-7	-4	4381	3	4	0.7	-6
O=C(CCn1nnc2ccccc21)NNC(=O)C1CCCCC1	-15	0	4906	3	-9	-1.6	1
c1csc(CN2CCNCC2)c1	-28	-7	4382	-5	-7	5.2	5
COC(=O)[C@@H](Cc1ccc(O)cc1)NC(=O)[C@H]1CCC(=O)N1C(=O)OCc1ccccc1	-7	-12	4213	.	.	2.2	11
CSc1nc(NS(=O)(=O)c2cc(C)c(Cl)cc2Cl)nn1C	-5	2	5729	4	12	4.0	-9
SMILES	PrP 5UTR inh	BJeLR lethal	Autofluor counter	Mtb hypoxia rep	Mtb hypoxia rep growth	Sa RN4220 lethal	ugtP null kill
Cc1noc(C)c1S(=O)(=O)N(CC(=O)Nc1ccc2c(c1)OCO2)c1ccc(C(C)C)cc1	8	.	4110	.	.	0.9	3
Cc1cccc(NC(=O)c2cc([N+](=O)[O-])ccc2NC2CCCCC2)c1	-6	10	1988	-4	-3	-6.9	19
CCCCN(CCCC)Cc1ccc(C(=O)NNC(=O)Nc2ccccc2)o1	-33	10	4981	-4	-9	-0.5	-5
COc1ccc(N(C(C)C(=O)N/N=C/c2ccc(OCC(C)C)cc2)S(C)(=O)=O)cc1 (stereo not drawn)	-18	3	1966	.	.	.	.
O=C(CSc1ncc(C(F)(F)F)cc1Cl)N1CCN(S(=O)(=O)c2ccccc2)CC1	-18	3	2379	3	2	-27	0
Cc1csc(NC(=O)c2ccc(C)c(S(=O)(=O)N3CCOCC3)c2)n1	.	-3	.	13	4	-24	6
O=C(OCc1ccc(COC(=O)c2cccnc2Cl)cc1)c1cccnc1Cl	-8	-3	4600	-8	2	-2.9	-5
CCCCC1CNC(=S)N1CCc1cccc2ccccc12 (stereo not drawn)	.	.	.	24	10	-6.6	7
CC1c2cc3c(cc2CCN1CC(=O)Nc1ccccc1)OCCCO3 (stereo not drawn)	-7	0	5485	.	.	.	.
Cc1onc(-c2c(F)cccc2Cl)c1C(=O)NC1CCCCCC1	-19	-1	3579	-1	3	4.0	-7
CCCc1nnc(NC(=O)CCC(=O)N2CCN(c3nc(C)cc(C)n3)CC2)s1	-25	2	4188	14	11	2.7	11
O=C(COC(=O)/C=C/c1cccc(F)c1)Nc1ccc(Cl)cn1	3	-1	4488	20	7	6.6	6
CC(=O)c1ccc2noc(-c3ccc(C)cc3)c2c1	7	-9	4021	-14	0	13	2
CCC(C)NC(=O)C1CCN(S(=O)(=O)c2ccc(OC)cc2)CC1 (stereo not drawn)	-20	4	10863	9	5	0.8	1
CC1CC(C)CN(C(=O)C2CCCN(S(=O)(=O)c3cccc4nonc34)C2)C1 (stereo not drawn)	-2	0	2320	.	.	-3.0	-3
Cc1cc(/C=N/n2cnnc2)c(C)n1-c1ccc(Cl)cc1	-5	6	2277	.	.	.	.
Cc1cc(C(=O)N2CCCC(C(=O)c3ccc(Oc4ccccc4)cc3)C2)n[nH]1 (stereo not drawn)	-16	5	5592	-1	-2	3.1	8
COc1ccc(C(=O)Nc2ccc3c(c2)nc(CN2CCN(C(C)=O)CC2)n3C)cc1	-7	-3	4998	.	.	-0.7	6
Cc1ccc(S(=O)(=O)CCC(=O)Nc2nc(-c3ccncc3)cs2)cc1	-15	2	4890	-6	0	6.7	9
O=C(COC(=O)c1cccs1)Nc1cc(S(=O)(=O)N2CCOCC2)ccc1Cl	-34	0	3984	4	-1	5.1	18
CN(c1ccccc1C(=O)Nc1ccccc1C(=O)NCc1ccco1)S(C)(=O)=O	-9	5	4745	-4	-2	2.2	-2
Clc1ccc(SCc2cn3ccccc3n2)cc1	-43	-6	4337	-1	5	-3.6	14
CCCOc1ccc(S(=O)(=O)NCCCN2CCOCC2)c2ccccc12	-9	-3	2711	.	.	0.7	3
CCN(CC)S(=O)(=O)c1ccc(O)c(NS(=O)(=O)c2ccccc2F)c1	-6	-5	2312	5	3	9.3	1
CN(C)C(CNC(=O)c1ccc(S(=O)(=O)Nc2cccc(C(F)(F)F)c2)cc1)c1ccco1 (stereo not drawn)	-24	11	?	-1	2	2.5	3

Exported in CSV form: 2 of the compounds above.
Molecule,PrP 5UTR inh,BJeLR lethal,Autofluor counter,Mtb hypoxia rep,Mtb hypoxia rep growth,Sa RN4220 lethal,ugtP null kill
CN(c1ccccc1C(=O)Nc1ccccc1C(=O)NCc1ccco1)S(C)(=O)=O,-9,5,4745,-4,-2,2.2,-2
O=C(OCc1ccc(COC(=O)c2cccnc2Cl)cc1)c1cccnc1Cl,-8,-3,4600,-8,2,-2.9,-5

Later entries
SMILES	PrP 5UTR inh	BJeLR lethal	Autofluor counter	Mtb hypoxia rep	Mtb hypoxia rep growth	Sa RN4220 lethal	ugtP null kill
CCNC(=O)C1CC(=O)N(c2ccc(Br)cc2)C1 (stereo not drawn)	-20	-13	2421	.	.	4.1	-4
CC(C)C(NS(=O)(=O)c1cccc2nsnc12)C(=O)NC1CCCCC1C (stereo not drawn)	-4	-2	4202	3	-9	5.4	5
O=[N+]([O-])c1cccc2c(S(=O)(=O)N3CCOCC3)cccc12	-6	1	3471	-8	11	0.4	-6
COc1ccc(CCNC(=O)CN(c2ccc(C)cc2)S(=O)(=O)c2c(C)noc2C)cc1OC	-13	4	2996	.	.	0.1	0
CNC(=O)c1c(NC(=O)c2cccc(N3C(=O)CCC3=O)c2)sc2c1CCCC2	-9	3	4263	16	11	2.5	3
COC(=O)[C@@]1(Cc2ccccc2)[C@H]2C(=O)N(Cc3ccccc3)C(=O)[C@H]2[C@H]2CN=C(SCc3ccccc3)N21	-37	.	3646	-6	4	1.3	-9
O=C(C1=CC(C2CCCCC2)CC(OCCCCO)O1)N1CCN(Cc2ccc3c(c2)OCO3)CC1 (stereo not drawn)	.	.	.	11&-1	10&1	4.2&10	-15&-18

An unsorted share of the library; overall some 4% were active at least once.
